# PINK1 modulator – A Quantitative High throughput Screen to Identify Chemical Modulators of PINK1 Expression; PINK1 immunofluorescence, high-content cytometry, 24 h; Potency, µM (doses to about 76.6 µM), for the others: at the highest dose activation (PINK1 increase), actives largely listed as activators; 410,000 tested, 0.2% active; active = well fitted activation curve with a large enough effect; inconclusive = small, poorly fitted or top-dose-only effect; inactive = flat fitted curve, though single readings scatter; cell line not stated here;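 further: potency means the concentration at half of the fitted maximal effect; % of control where 0% means no effect; nearly all actives have a fitted effect of over 65% in size; a mitochondrial uncoupler was the plate control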
#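 PINK1 protein level read as immunofluorescence by microplate cytometer in a fixed, stained stable cell line after 24 h exposure to five compound concentrations, with CCCP as control.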
# TRPML1 ag – qHTS for Agonists of the Human Mucolipin Transient Receptor Potential 1 (TRPML1); Mucolipin-1 (Homo sapiens), Q9GZU1; TRPML1-expressing cells, Ca2+ dye fluorescence, FDSS; host cell line not named in the record; reference of the full effect not given here; 410,000 tested, 0.12% active; activation, % (no concentration beside the values); in the data active = activation above about 50%; inconclusive = about 30% to 50%; inactive = below about 30%; further: 0% is about no effect; the text of the record puts the active cut at 80%
# Target sequence (Q9GZU1 whole entry, looked up): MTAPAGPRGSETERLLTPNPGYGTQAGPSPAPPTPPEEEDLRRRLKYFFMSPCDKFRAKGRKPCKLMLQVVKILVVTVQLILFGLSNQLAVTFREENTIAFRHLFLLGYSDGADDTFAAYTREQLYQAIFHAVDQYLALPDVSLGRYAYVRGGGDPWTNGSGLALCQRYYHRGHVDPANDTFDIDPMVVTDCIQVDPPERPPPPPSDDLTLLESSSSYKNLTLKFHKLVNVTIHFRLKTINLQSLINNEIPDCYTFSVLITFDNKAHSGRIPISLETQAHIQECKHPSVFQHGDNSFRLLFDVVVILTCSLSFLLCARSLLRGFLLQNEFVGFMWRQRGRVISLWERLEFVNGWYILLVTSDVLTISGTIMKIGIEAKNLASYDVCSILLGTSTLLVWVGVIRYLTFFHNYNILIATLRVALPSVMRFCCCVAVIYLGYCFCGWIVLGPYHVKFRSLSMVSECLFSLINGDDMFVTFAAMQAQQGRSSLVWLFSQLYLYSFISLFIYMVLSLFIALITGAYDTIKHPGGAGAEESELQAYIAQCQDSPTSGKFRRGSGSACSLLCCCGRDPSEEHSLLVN
#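 In this qHTS format, compounds were pin-transferred onto Ca8-dye-loaded TRPML1-DL cells induced with Tet overnight, and intracellular Ca2+ fluorescence was recorded kinetically for 110 s after a 10 s baseline. A subsequent 4uM final 54-4 (EC80) addition followed by a second 110 s read served as the antagonist phase.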
# D2 ag – Beta-Arrestin HTS for Positive Allosteric Modulators of the Human D2 Dopamine Receptor: Agonists; D(2) dopamine receptor (Homo sapiens), P14416; DiscoveRx PathHunter D2 beta-arrestin, luminescence, 90 min; 100% = 57 uM dopamine signal; activation, % (concentration not given with the values); 360,000 tested, 0.084% active; in the data active = activation above about 40%; inconclusive = about 15% to 40%; inactive = below about 15%; further: compound concentration not given in the record; the text of the record calls up to 30% inactive
# Target sequence (P14416 whole entry, looked up): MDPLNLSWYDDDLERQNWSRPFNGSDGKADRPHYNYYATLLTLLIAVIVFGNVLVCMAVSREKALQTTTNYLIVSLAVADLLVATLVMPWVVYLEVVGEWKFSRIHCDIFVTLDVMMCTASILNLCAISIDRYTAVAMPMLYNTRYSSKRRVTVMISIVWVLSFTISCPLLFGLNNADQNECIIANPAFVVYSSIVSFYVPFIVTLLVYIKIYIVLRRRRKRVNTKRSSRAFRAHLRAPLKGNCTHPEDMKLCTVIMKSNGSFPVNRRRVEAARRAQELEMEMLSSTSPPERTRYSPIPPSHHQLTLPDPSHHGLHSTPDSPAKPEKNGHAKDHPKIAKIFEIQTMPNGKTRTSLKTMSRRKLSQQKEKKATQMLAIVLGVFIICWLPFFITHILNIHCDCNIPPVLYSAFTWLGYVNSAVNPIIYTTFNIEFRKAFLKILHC
#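 DiscoveRx PathHunter D2 beta-arrestin cells (2,100/well) attached overnight, then compound-stimulated 90 min at 37 C in HBSS/10 mM HEPES/0.1% Tween-20 buffer; beta-galactosidase complementation read by luminescence after 1 h at ambient temperature. Dopamine 57 uM final (EC100) as control.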
# Six1-Eya2 inh – qHTS Assay for Inhibitors of the Six1/Eya2 Interaction | Homeobox protein SIX1 (Homo sapiens) + Protein phosphatase EYA2 (Homo sapiens), … | AlphaScreen GST-Six1/His-Eya2 binding, biochemical; stronger effect = lower value; control for the full effect not named in the record | activity change, % (concentration not given with the values) | 360,000 tested, 0.56% active | AID 651725, 2012; in the data active = activity change below about -65%; inconclusive = about -30% to -65%; inactive = above about -30%; further: on the % scale 0 is the no-effect control and ±100 the full control effect
#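 Homogeneous AlphaScreen proximity assay pairing GST-Six1 with His-tagged Eya2 (added as 5X mix: 250 nM and 500 nM) in 50 mM Tris pH 8.0, 300 mM NaCl, 1 mM TCEP. Glutathione donor and nickel acceptor beads; 1 h, 37 °C, dark.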
# D2 PAM – Beta-Arrestin HTS for Positive Allosteric Modulators of the Human D2 Dopamine Receptor: Potentiators; DiscoveRx D2 beta-arrestin cells, luminescence, 90 min; 100% = 57 uM dopamine signal; potentiation, % (test concentration not listed); 360,000 tested, 0.23% active; active = potentiation of 50% or more; inconclusive = 30% to 50%; inactive = 30% or less;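 further: compound concentration not given in the record; tested on top of an EC20 dose of dopamine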
#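 D2 cells co-treated with compound plus 50 nM dopamine (EC20) for 90 min at 37 deg C to detect potentiation. Beta-arrestin recruitment was read as enzyme-fragment luminescence after 1 h at ambient temperature. Full response was set by 57 uM dopamine.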
# TRPML1 inh – qHTS for Inhibitors of the Human Mucolipin Transient Receptor Potential 1 (TRPML1); Mucolipin-1 (Homo sapiens), Q9GZU1; TRPML1-inducible cells, Ca2+ dye fluorescence, FDSS; stronger effect = lower value; inhibition of EC80 agonist-evoked calcium signal; activity change, negative = inhibition, % (test concentration not listed); 390,000 tested, 0.02% active; AID 624415, 2012; in the data active means activity change below about -50%; inconclusive means about -30% to -50%; inactive means above about -30%;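 further: stimulus is agonist 54-4 at its EC80 concentration; on the % scale 0 is the no-effect control and ±100 the full control effect; compound concentration not given in the record; the text of the record puts the active cut at -80%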
#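 Tet-induced TRPML1-DL cells loaded with Ca8 no-wash calcium dye were read kinetically on FDSS. Compound addition was followed by EC80 agonist 54-4 (4 uM final); inhibition was read over 110 s.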
# Active calls of the source: *; ? = inconclusive; nt = not tested or not shown; [ ] = dose if it differs, or a comment. Not a hit list; any-hit rate near 1%.
# Every second line gives: PINK1 modulator	TRPML1 ag	D2 ag	Six1-Eya2 inh	D2 PAM	TRPML1 inh
O=C(COC(=O)COc1ccc(Br)cc1)NC1CCCCCC1
→ 2.1%	3.6	3.7	5	1	-23
CCOC(=O)C1CCCN(S(=O)(=O)CCNC(=O)c2ccc(F)cc2)C1 (stereo unspecified)
→ 1.5%	0.0	-1.4	0	-4	5
COC(=O)c1nn(C23CC4CC(CC(C4)C2)C3)c2c1C(=O)N(c1ccc(Br)cc1)C2=O
→ 2.9%	1.6	-4.0	4	4	27
CCCCN(C(=O)C(C)Oc1cccc(Cl)c1)c1c(N)n(CCC)c(=O)[nH]c1=O (stereo unspecified)
→ -1.3%	0.2	-2.0	-2	-7	22
COc1ccc(CC2(CO)CCN(C/C=C/c3ccccc3OC)CC2)cc1
→ 2.9%	0.8	-1.4	-5	-7	-6
Cc1ccc(NC(=O)c2cccc(S(=O)(=O)NCc3ccccc3)c2)nc1
→ 14%	2.1	0.5	-13	1	19
Cc1ncc[nH]1
→ 0.6%	-0.8	-2.3	-1	-3	0
CCOc1ccccc1NC(=O)c1c(NC(=O)c2ccccc2C)sc2c1CCC(C)C2 (stereo unspecified)
→ 2.0%	-0.1	nt	nt	nt	25
COc1ccc(-c2nc3cc([N+](=O)[O-])ccc3o2)cc1OC
→ 1.8%	-0.2	-3.8	4	-4	-11
Cc1ccc(C)c(NC(=O)Nc2csc3c2CCCC3)c1
→ 8.7%	-0.5	nt	nt	nt	12
COCc1cc(C)nc(SCC(=O)Nc2ccc3[nH]c(=O)[nH]c3c2)c1C#N
→ 18%	0.3	4.3	-11	-2	0
CCOC(=O)C1(CCCc2ccccc2)CCN(Cc2cn(CC)nc2C)CC1
→ 1.2%	1.2	-2.0	0	-8	13
CCCC(C)c1nc(C(N)=O)c2[nH]c(=O)n(-c3ccc(OC)cc3OC)c2n1 (stereo unspecified)
→ -1.5%	0.2	0.2	-9	-6	-1
CCOC(=O)N1CC(C)N(CC(O)CN2CCOCC2)CC1C (stereo unspecified)
→ -2.7%	0.0	-1.8	4	-6	30
CC1=C(C(N)=O)C(c2ccc(C(C)C)cc2)n2nc(SCc3ccccc3)nc2N1 (stereo unspecified)
→ 2.4%	0.2	nt	nt	nt	3
O=C(O)C1CC(=O)N(CCc2ccc(F)cc2)C1 (stereo unspecified)
→ -1.5%	0.4	1.9	23	-3	-5
CCOc1ccc(-n2c(C)nc3cc(C(=O)NCc4ccco4)ccc32)cc1
→ -0.7%	1.3	-2.6	5	-6	19
O=Cc1c(-c2ccccc2)nc2ccccn12
→ 0.3%	nt	-2.8	2	-4	nt
COc1ccc(S(=O)(=O)N2CCCCCC2)cc1C(=O)NCc1ccco1
→ -2.5%	-0.2	1.1	-14	-8	-18
c1ccc(OCCCCN2CCOCC2)cc1
→ 8.4%[38.3 µM]	-0.5	-1.7	1	-6	1

# Complete entries as entered above. Values in the order: PINK1 modulator	TRPML1 ag	D2 ag	Six1-Eya2 inh	D2 PAM	TRPML1 inh
# Cc1ccc(C)c(NC(=O)Nc2csc3c2CCCC3)c1 in the list: 8.7%	-0.5	nt	nt	nt	12
# COCc1cc(C)nc(SCC(=O)Nc2ccc3[nH]c(=O)[nH]c3c2)c1C#N in the list: 18%	0.3	4.3	-11	-2	0
# CCOc1ccccc1NC(=O)c1c(NC(=O)c2ccccc2C)sc2c1CCC(C)C2 (stereo unspecified) in the list: 2.0%	-0.1	nt	nt	nt	25

# Further structures follow:
# Every second line gives: PINK1 modulator	TRPML1 ag	D2 ag	Six1-Eya2 inh	D2 PAM	TRPML1 inh
c1ccc2cc(OCCCn3ccnc3)ccc2c1
→ 3.8%	-0.1	3.7	-4	-9	25
CCOC(=O)c1c(NC(=O)CN2CCCCC2)sc(C)c1C
→ ?	-0.1	-4.1	3	-3	-16
COc1cc(CN=Cc2c(O)n(Cc3ccccc3)c(=S)[nH]c2=O)cc(OC)c1
→ 2.9%	0.0	-5.4	-1	-4	-7
O=C(/C=C/c1ccccc1)Nc1cc(NC(=O)/C=C/c2ccccc2)cc(C(=O)O)c1
→ 1.7%	0.4	-4.1	-15	-2	-19
CCOc1cc(/C=N/NC(=S)Nc2ccccc2C(F)(F)F)ccc1OCC(=O)N1CCOCC1
→ -0.7%	3.0	1.7	-6	-3	14
CN1CCN(C(=O)C2CCN(S(=O)(=O)c3ccc4c(c3)oc(=O)n4C)CC2)CC1
→ 1.0%	-0.7	-6.3	-7	-5	3
CC(C)[C@H](NC(N)=O)C(=O)Nc1ccc(OCc2ccccc2)cc1
→ 1.2%	1.4	-3.1	-4	-11	3
CCCC(=O)Nc1nnc(SCC(=O)NC2CC2)s1
→ -0.8%	-1.1	-5.8	3	-5	-4
O=C1N[C@@H](Cc2ccccc2)[C@@H](c2ccco2)O1
→ -1.1%	-0.6	-1.5	-3	2	13
CN(CCCNC(=O)CCc1cn(C)c2ccccc12)C1CCCCC1
→ 0.1%	-0.7	-3.0	-10	-5	1
Cc1ccc([N+](=O)[O-])cc1NC1OC(CO)C(O)C1O (stereo unspecified)
→ -1.2%[38.3 µM]	1.0	-2.7	1	-5	8
O=C(Cc1ccc([N+](=O)[O-])cc1)NNC(=O)c1ccc2c(c1)OCO2
→ 0.6%	-0.2	-2.7	1	-11	17
COC(=O)COc1ccc(-c2nn(C)c(=O)c3ccccc23)cc1
→ 1.0%	-1.1	-1.6	2	-4	2
O=c1oc2c(-c3ccc([N+](=O)[O-])cc3)cc(O)cc2s1
→ -2.1%	-0.1	12	6	20	-7
C=CCN(c1ccccc1)S(=O)(=O)c1cccc(C(=O)N2CCN(c3ncccn3)CC2)c1
→ 0.1%	1.8	-1.3	-2	-17	2
CC(=O)c1ccc(S(=O)(=O)N2CCn3cccc3C2c2ccccc2F)cc1 (stereo unspecified)
→ 2.7%	3.9	nt	nt	nt	31
CCN(CC)c1cc2c(cc1F)c(=O)c(S(=O)(=O)c1cc(C)ccc1C)cn2Cc1ccccc1
→ ?	0.8	nt	nt	nt	-2
COc1ccc(OC)c(CNC(=O)Cc2c(C(=O)O)[nH]c3ccc(Cl)cc23)c1
→ -0.1%	0.7	-3.8	-13	-6	26
CCOc1ccccc1/C=N/NC(=O)c1nnn(-c2nonc2N)c1CN1CCC(C)CC1
→ 6.2%	-0.5	-0.6	3	-3	-1
CC1(C)CC(=O)CC(C)(C)N1OC(=O)c1ccco1
→ 2.1%	-0.5	1.3	-1	18	6
CCN(Cc1nc2cc(Cl)ccc2c(=O)[nH]1)C(=O)c1cccc(OCc2c(C)noc2C)c1
→ 5.7%	4.8	3.4	3	3	13
Cc1nn(C(=O)CCC(=O)NCCc2ccccc2)c2ccccc12
→ 0.5%	0.3	3.3	-1	-8	15
CC(C)(C)C(=O)NNC(=O)c1cnccn1
→ 0.6%	nt	-2.7	-2	-7	nt
COc1ccc(CCNC(=O)c2cc(CC(C)C)on2)cc1OC
→ 1.3%	-0.2	-3.6	-3	-9	-1
Cc1ccc(N2CCN(S(=O)(=O)N(C)C)CC2)cc1Cl
→ -1.3%	18	-1.1	0	12	-12
O=C(Cn1c(=O)n(Cc2ccc(C(=O)NCc3ccc4c(c3)OCO4)cc2)c(=O)c2ccccc21)Nc1ccc(F)cc1F
→ 2.4%	1.3	nt	nt	nt	-22
CCOC(=O)n1c(=O)n(Cc2cccc(F)c2)c2ccccc21
→ -0.7%	1.2	-2.2	-2	-6	-12
COc1cc(N)c(Cl)cc1C(=O)OC(C)C(=O)Nc1cccc(S(=O)(=O)N2CCOCC2)c1 (stereo unspecified)
→ 1.4%	-0.1	1.7	-6	-5	-5
CCn1c2ccccc2c2cc(NC(=O)C(=O)N3CCOCC3)ccc21
→ 0.8%	1.8	-3.6	-1	-7	-13
CCOC(=O)c1cc2c(C)n(-c3ccc(OCC)cc3)c(C)c2cc(C(=O)OCC)c1=O
→ 11%	1.5	4.9	-3	-5	21
O=C1CC(c2cccc(Cl)c2)CC(O)=C1C=Nc1ccccc1 (stereo unspecified)
→ 4.6%	0.3	-8.0	5	-3	18
COc1ccccc1NC(=O)NCC(=O)Nc1c(C)cccc1C
→ 0.5%	0.3	0.5	11	-3	-20
O=C(NC(NC(=S)Nc1c(Cl)cc(Cl)cc1Cl)C(Cl)(Cl)Cl)OCc1ccccc1 (stereo unspecified)
→ ?	2.5	-4.3	4	-5	14
CCCC1C(C#N)=C(N)Oc2cc(C)n(C)c(=O)c21 (stereo unspecified)
→ -2.6%	1.1	-2.5	14	-22	40
O=C(Nc1cc(-c2cccc(Cl)c2)nn1-c1ccccc1)c1ccccc1F
→ 7.7%	-0.2	nt	nt	nt	-5
O=C(/C=C/C(Cl)(Cl)Cl)Nc1ccc(Cl)cc1
→ -0.3%	0.5	?	4	?	1
COc1ccc(C(NCC(=O)Nc2c(C)cccc2C)c2ccccc2)cc1 (stereo unspecified)
→ -2.9%	2.2	-7.4	-2	-2	-6
COc1ccccc1OCC(=O)Nc1ccccc1C(=O)NC1CC1
→ -1.2%	0.0	2.9	8	10	19
C[C@@H]1CN([C@H](C)CO)C(=O)CCCn2nncc2CO[C@H]1CN(C)Cc1ccc(O)cc1
→ 4.4%	nt	-2.7	11	nt	nt
O=C(CSc1ncn[nH]1)NC1CCCc2ccccc21 (stereo unspecified)
→ 0.1%	-0.5	0.1	4	-7	-7
C=CCNC(=O)c1ccccc1SCc1c(C)noc1C
→ -0.3%	-0.4	-3.1	2	-18	-2
COc1ccc(-n2ccnc2SCC(=O)Nc2cc(C)on2)cc1
→ 4.6%	-0.2	0.8	-10	-11	-2
CN(C)CCCNc1ccc(S(N)(=O)=O)cc1[N+](=O)[O-]
→ 0.0%	0.1	-5.2	-3	-9	12
CC(C)(CN1CCc2ccccc2C1)NS(=O)(=O)c1ccc(Cl)cc1
→ 0.4%	2.3	-3.1	3	-21	65
Cc1ccc([C@H]2C[C@H](O)[C@@H](n3cc(COC(=O)c4ccccc4)nn3)CN2CC2CCCCC2)cc1
→ -0.9%	nt	-1.2	-2	nt	nt
CN(C(=O)COc1nnc(-c2cccs2)c(-c2cccs2)n1)c1ccccc1
→ -0.9%	0.2	-6.3	-5	-19	-17
Cc1c(NC(=O)C(C)Sc2nccn2C)c(=O)n(-c2ccccc2)n1C (stereo unspecified)
→ 0.8%	-0.6	-2.9	0	0	28
O=C(CNC(=O)c1ccco1)NNC(=O)c1n[nH]c(=O)c2ccccc12
→ 3.4%	-0.2	3.4	2	-7	17

# Screening data deposited in PubChem BioAssay by National Center for Advancing Translational Sciences (NCATS).
